Source: PubChem (Broad Institute)
RanGTP-Imp inh – inhibitors of RanGTP-importin-beta interaction, primary screen, biochemical, FRET, CFP-Ran, YFP-importin-beta, homogeneous; cell-free CFP-Ran/YFP-importin-beta FRET ratio; inhibition, % (concentration not given with the values); 300,000 tested, 1.1% active;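 active = most replicates above 15%; inconclusive = exactly half above 15%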;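 also: 0% = DMSO wells and 100% = Ran loaded with GDP instead of GTP; wells of about 40 µL received 100 nL stock; the first replicate is given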
FGF22 binding – FGF22 (human) thermal shift binding; recombinant FGF22 thermal shift, SYPRO orange fluorescence; percent of sucrose octasulfate shift, DMSO zero; 340,000 tested, 1.5% active; calls only at 9.99 µM;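 active = melting point raised past a set limit in the mean and every replicate; inconclusive = no clear call; three in four hits are not shown here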
Target sequence (Q9HCT0 whole entry, looked up): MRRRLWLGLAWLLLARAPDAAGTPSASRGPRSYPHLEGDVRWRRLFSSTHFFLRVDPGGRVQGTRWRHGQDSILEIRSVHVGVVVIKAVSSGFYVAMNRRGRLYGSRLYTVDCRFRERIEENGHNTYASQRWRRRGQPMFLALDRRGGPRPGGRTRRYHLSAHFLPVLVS
AF4-AF9 inh – inhibitors of human MLL-AF4/AF9 interaction | P42568 | AlphaScreen, biotin-AF4 peptide binding to FLAG-AF9 | inhibition, % at 10 µM | 350,000 tested, 0.47% active;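 active = every replicate reaching a set inhibition limit, whatever the replicate mean, cut at about 25% in these data; inconclusive = mean inhibition reaches that limit but some replicates miss it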;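 also: 0% = plate neutral control median and 100% = total signal loss; the record names both 10 and 1 µM as test concentration; the first replicate is given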
Target sequence (P42568 whole entry, looked up): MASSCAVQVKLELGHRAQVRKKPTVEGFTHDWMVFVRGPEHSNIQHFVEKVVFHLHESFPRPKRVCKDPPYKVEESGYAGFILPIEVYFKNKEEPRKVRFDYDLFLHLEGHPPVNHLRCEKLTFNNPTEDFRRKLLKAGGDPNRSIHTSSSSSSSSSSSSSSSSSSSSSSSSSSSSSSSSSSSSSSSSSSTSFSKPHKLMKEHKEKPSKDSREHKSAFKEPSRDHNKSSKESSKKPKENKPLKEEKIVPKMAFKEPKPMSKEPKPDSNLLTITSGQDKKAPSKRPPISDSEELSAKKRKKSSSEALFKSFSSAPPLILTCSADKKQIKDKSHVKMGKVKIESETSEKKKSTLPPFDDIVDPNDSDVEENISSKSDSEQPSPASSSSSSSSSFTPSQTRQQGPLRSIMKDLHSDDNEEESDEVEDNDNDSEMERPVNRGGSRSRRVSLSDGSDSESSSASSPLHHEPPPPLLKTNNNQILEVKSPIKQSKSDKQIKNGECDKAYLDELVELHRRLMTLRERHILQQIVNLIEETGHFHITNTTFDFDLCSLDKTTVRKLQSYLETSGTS
rRNA inh HTS – inhibits bacterial ribosomal RNA function over humanized ribosomes. 350,000 tested, 1.6% active. E. coli WT GFP vs humanized-ribosome RFP mutants, fluorescence, 24 h; hits give low values; DMSO median 0, no signal -100. GFP signal change (wild-type ribosome), % (test concentration not listed);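 active = significant combined selectivity score with lowered wild-type GFP, culture density cut under 30%, mutant RFP and density less affected; inactive = any of these conditions unmet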; also: one replicate is shown; some compounds called inactive have numbers as strong as hits
ALR inh – inhibitors of human sulfhydryl oxidase ALR. P55789. purified ALR, DTT oxidation, H2O2 HRP-luminol luminescence. inhibition, % (test concentration not listed). 290,000 tested, 3.8% active. AID 485317;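 active = mean and each replicate at 75% or more; inconclusive = only one of the two met; inactive = neither met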;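 also: stock transfer was 7.5 nL into about 7.5 µL; 0% = neutral wells and 100% = wells with inactivated enzyme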
Target sequence (P55789 whole entry, looked up): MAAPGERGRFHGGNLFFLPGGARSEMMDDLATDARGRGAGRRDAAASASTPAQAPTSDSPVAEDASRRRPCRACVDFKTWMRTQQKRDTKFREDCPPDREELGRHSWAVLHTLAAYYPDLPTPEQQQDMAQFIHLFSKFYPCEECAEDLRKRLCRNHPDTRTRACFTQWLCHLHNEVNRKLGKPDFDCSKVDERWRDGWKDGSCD
T cruzi repl – T. cruzi replication inhibition. T. cruzi beta-gal in NIH3T3, luminescence, 90 h. inhibition, % (concentration not given with the values). 300,000 tested, 1.4% active;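 active = mean inhibition across valid replicates above about 55%, limit read from the data; inconclusive = mean below that limit but half or more replicates reach it; inactive = mean below it, under half of replicates reach it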;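 also: signal also drops with host cell toxicity which is not excluded here; 0% = plate median of DMSO wells and 100% = zero luminescence signal; higher percent means less beta-gal luminescence so fewer parasites; stock transfer was 50 nL into about 50 µL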
Beta apoptosis – blocks beta cell apoptosis. INS-1E cytokine-induced death, ATP luminescence, 48 h; percent of positive-control rescue, neutral wells zero. AID 435005. protection from apoptosis, % (no concentration beside the values). 300,000 tested, 0.8% active;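 active = all replicates at 75% or more, or half of them and the mean; inconclusive = half reach 75% but not the mean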;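 also: 0% = cytokine-treated negative control wells and 100% = positive control rescue; higher means more ATP so stronger rescue from cytokine killing; wells of about 40 µL received 100 nL stock; the first replicate is given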
Calb FLC – affects C. albicans growth with fluconazole. C. albicans CaCi-2 (fluconazole-resistant clinical isolate) + fluconazole, Alamar Blue growth, 48 h. growth inhibition, % (concentration not given with the values). 300,000 tested, 0.57% active. AID 1979;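 active = most replicates above 75%; inconclusive = exactly half above 75%; inactive = most below 75%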;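 also: all wells also contain fluconazole at 8 µg/ml as a sub-toxic cotreatment; 0% = median of DMSO wells and 100% = median of geldanamycin control wells; wells of about 8 µL received 7.5 nL stock; the first replicate is given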
rRNA inh HTS OD600 – second read-out of rRNA inh HTS, no call of its own (marks repeat the call); OD600 change, %; measured here: OD600 growth;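 optical density of the mix in the first replicate; 0 = DMSO median and -100 = no signal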
rRNA inh HTS RFP – also measured in rRNA inh HTS; calls as there; RFP signal change, %; measured here: RFP humanized mutant strains;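 first replicate; 0 = DMSO median and -100 = no signal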
Starred values were filed as active, the others as inactive; i = inactive; ? = inconclusive; / = not tested or not shown.

SMILES	RanGTP-Imp inh	FGF22 binding	AF4-AF9 inh	rRNA inh HTS	rRNA inh HTS OD600	rRNA inh HTS RFP	ALR inh	T cruzi repl	Beta apoptosis	Calb FLC
COc1ccc(C2Nc3ccccc3NC3=C2C(=O)CC(C)(C)C3)cc1 (stereo not drawn)	-6.0	i	0.8	13	-7	59	57	7	-6	1
C=C(C)CNC(=S)NNC(=O)c1ccc(Br)cc1	-0.9	i	-1.4	7	3	-1.0	13	-7	0	11
C=CCNC(=O)c1onc(CSc2cccc(OC)c2)c1C(=O)NCC=C	3.7	i	2.2	12	3	0.5	-5	-7	6	-1
COc1ccccc1CC(=O)NCCc1c[nH]c2ccccc12	5.4	i	1.3	-17*	-2.8*	2.8*	-11	-10	/	-4
CCOc1ccc(OCCC(=O)N(CC)CC(=O)NCc2cccs2)cc1	/	i	0.0	-8	-2	0.0	/	/	-11	/
C/C(=N/NC(=O)c1nnn(-c2nonc2N)c1COc1ccccc1)c1ccccc1	1.0	i	-1.9	-7	-3	1.9	-1	4	-1	/
Cc1ccc(C)c(NC(=S)N2CCCCCC2)c1	8.8	/	/	/	/	/	-4	-24	-2	-6
COc1ccc(N2CCN(c3ncnc4sc(C(=O)NCC5CCCO5)c(C)c34)CC2)cc1 (stereo not drawn)	?	i	9.5	-13	-9	3.9	31	7	13	4
COC(C/C=C/[C@@H](O)[C@@H](C)OCc1ccccc1)OC	1.0	i	-5.7	9	6	5.5	-5	-8	1	3
O=C(Oc1ccccc1Cl)c1ccccc1P(=O)(O)O	-1.6	/	/	/	/	/	/	-6	-6	-4
Cc1csc(NC(=O)c2cc(=O)[nH]c3ccc(S(=O)(=O)N4CCOCC4)cc23)n1	4.9	i	1.2	-7	1	-3.2	5	6	-2	5
Cc1ccc(NC(=O)CCC(=O)N/N=C/c2ccccc2O)cc1	-1.3	i	-2.3	9	10	5.8	-4	1	68	2
O=C1CSC(c2ccccc2[N+](=O)[O-])N1CCc1ccccc1 (stereo not drawn)	-2.8	/	5.0	-15	-25	-1.6	-15	0	-6	-19
O=C1/C(=C/c2cccnc2)SC(=S)N1c1ccc(O)cc1	?	i	3.8	9	7	4.8	/	-3	-8	-1
Cc1ccc(NC(=O)CN(Cc2ccco2)Cc2ccccc2O)cc1C	2.7	i	-0.5	-11	-46	16	0	29	/	-3
O=c1c2ccccc2nnn1CCN1CCOCC1	0.2	i	0.1	14	11	0.9	-5	-2	2	?
COc1ccc(-n2nc(C(=O)NCC(=O)NCCc3ccc(OC)c(OC)c3)c3ccccc3c2=O)cc1Cl	4.3	i	-7.5	0	3	-2.5	-4	-4	1	15
CC(C)(C)OC(=O)NCCCCCc1nnc(SCc2c(F)cccc2Cl)o1	1.9	i	/	-2	1	1.4	/	-1	3	-2
Cc1ccc2cc(C#N)c(SCC(=O)NCC3CCCO3)nc2c1 (stereo not drawn)	4.3	/	/	/	/	/	-7	3	-2	-5
Cc1cnc(C(=O)OCC(=O)Nc2cc(Cl)cc(Cl)c2)cn1	0.7	i	-1.2	4	2	0.2	1	-8	/	11
CC(C)C[C@H](NC(=O)c1[nH]cnc1C(=O)N[C@H](C)c1ccccc1)C(=O)OCc1ccccc1	2.3	/	/	/	/	/	-9	-9	-4	-5
CC(C)(C)n1ncc2c(=O)n(CC(=O)NCCc3ccccc3)cnc21	3.5	/	/	3	0	-0.5	-2	-4	0	-13
COc1ccc(C#Cc2c(-c3ccc(OC)cc3)oc3ccc(-c4ccc(OC)cc4)cc23)cc1	-0.1	i	2.3	7	5	-3.8	/	-23	-2	-3
COCCNC(=O)c1ccc2c(=O)n(CCCN3CCCC3=O)c(=S)[nH]c2c1	2.5	i	-6.2	-1	0	-1.9	53	-2	-3	5
CCN(CC)CCCNC(=O)c1nn(-c2ccc(OC)cc2OC)c(=O)c2ccccc12	0.9	/	/	/	/	/	16	27	-6	5

The list continues.
SMILES	RanGTP-Imp inh	FGF22 binding	AF4-AF9 inh	rRNA inh HTS	rRNA inh HTS OD600	rRNA inh HTS RFP	ALR inh	T cruzi repl	Beta apoptosis	Calb FLC
CCCCCCCNC(=O)C1(CC2CC(c3ccc(Cl)cc3)=NO2)CCN(C(=O)c2ccccc2)CC1 (stereo not drawn)	1.1	i	-2.6	6	1	2.2	2	-2	0	6
O=C(COc1ccc(F)cc1Cl)Nc1nc(-c2ccccn2)cs1	0.6	i	-0.3	-47	-66	-10.0	-97	76*	8	-1
CCC1CCCCN1C(=O)Cn1c(=O)n(CCC(=O)NCc2ccco2)c(=O)c2sccc21 (stereo not drawn)	9.3	/	/	/	/	/	-21	11	-9	2
Cc1cc(C)c(C)c(S(=O)(=O)N2CCN(CC(=O)c3c(N)n(Cc4ccccc4)c(=O)n(C)c3=O)CC2)c1C	1.9	i	2.6	-8	-15	-5.5	1	52	12	10
Cc1ccccc1OCC(=O)NC(=S)Nc1ccc(N2CCOCC2)c(Cl)c1	-0.4	/	/	/	/	/	4	4	-1	9
COc1ccccc1OCc1ccc(C(=O)NN)cc1	1.9	/	/	/	/	/	-40	-4	-6	-8
O=C(COC(=O)CCSc1ccccc1Cl)Nc1ccc(F)cc1F	3.6	i	-2.6	-22	0	-0.1	0	-6	/	-8
COc1ccccc1C1C2=C(N=C3SCC(=O)N31)c1ccccc1CC2 (stereo not drawn)	8.3	/	/	/	/	/	-22	10	-2	21
O=C1CC(c2ccsc2)c2cc3c(cc2N1)OCCO3 (stereo not drawn)	5.4	i	6.7	2	-2	-1.0	/	-3	-1	-7
CC(C)(C)c1nc(SCC(=O)NNC(=O)c2ccccc2)c2ccccc2n1	-1.1	i	2.7	-8	-7	2.9	0	16	-4	3
COc1cc(OC)c(C2C(C#N)=C(C)NC(C)=C2C#N)c(C(=O)O)c1	2.7	i	-9.6	-6	-3	-2.7	19	-1	-2	-14
CC1=CC(=O)C(C(C)C)=C/C1=N/OC(=O)c1cccc([N+](=O)[O-])c1	1.0	i	2.8	0	4	0.7	/	-18	-14	35
CC1C(=O)CCCCCCCCCC2C1(N1CCOCC1)CS2(=O)=O (stereo not drawn)	0.2	/	/	/	/	/	4	0	1	13
N#Cc1ccc(/C=C2\CCCCn3c2nc2cc(C(=O)O)ccc2c3=O)cc1	1.5	i	4.1	3	5	0.0	0	-6	0	-3
COc1cccc(OCCOCCNCCO)c1	3.5	/	/	/	/	/	-4	3	-2	-3
CC(=O)Oc1ccc2c(=O)oc(-c3ccccc3C)nc2c1	4.2	i	4.1	0	-13	1.4	32	0	/	-6
C=CCOc1ccc(CNCCO)cc1OCC	1.2	i	0.2	9	2	-1.9	/	-3	-4	-9
CCC(C)NC(=O)CSc1nnc(-c2cc(-c3ccc(C)cc3)nc3ccccc23)n1N (stereo not drawn)	-5.2	/	/	/	/	/	-11	-2	2	0
Cc1c(C(=O)NC2=NCCS2)cccc1[N+](=O)[O-]	1.7	i	-0.4	7	14	1.4	-11	-8	-1	-1
COc1ccc(CCNC(=O)c2noc(C(C)C)c2[N+](=O)[O-])cc1OC	4.4	i	-1.0	-3	-7	0.6	/	-5	1	-5
CCOC(=O)C1(C)/C(=N/Nc2ccc(S(N)(=O)=O)cc2)C(=O)C(=O)N1c1ccccc1 (stereo not drawn)	-3.5	i	2.3	7	6	2.6	2	-4	0	18
O=C(O)c1cc(S(=O)(=O)N(Cc2ccccc2)c2ccc(Cl)cc2)ccc1Cl	0.0	i	0.4	-21	-24	1.0	58	5	/	3
CC1(C)Cc2c(sc3nc4n(c(=O)c23)CCC4)CO1	?	/	/	3	-2	-3.5	-10	-15	-2	-3
CCc1ccc(NC(=O)C2CCN(C(=O)N3CCOc4ccccc43)CC2)cc1	?	i	-9.1	-14	-47	-3.3	-1	46	3	2
CCCCN(C(=O)CSCc1c(C)noc1C)c1c(N)n(CCCC)c(=O)[nH]c1=O	4.5	i	-5.2	3	4	-2.2	/	-7	/	-4

(list continues)
SMILES	RanGTP-Imp inh	FGF22 binding	AF4-AF9 inh	rRNA inh HTS	rRNA inh HTS OD600	rRNA inh HTS RFP	ALR inh	T cruzi repl	Beta apoptosis	Calb FLC
CC(C)Oc1ccc(CCC(=O)N/N=C/c2ccc3c(c2)OCO3)cc1	-1.8	i	-2.6	6	8	0.2	-2	-2	-6	-5
Cc1ccc(N2C(=O)[C@@H]3[C@H](C2=O)C2CCCN2[C@@H]3C(=O)c2ccccc2)cc1 (stereo partly drawn)	-5.2	/	/	/	/	/	2	-14	-6	0
COc1cc(NC(=O)c2c3c(nc4ccccc24)CCC3)cc(OC)c1	-0.6	/	/	/	/	/	-6	-12	-2	0
CCN1CCN(S(=O)(=O)c2ccc(Cl)c(C(=O)N(C)Cc3cccc(Cl)c3Cl)c2)CC1	1.6	i	4.2	-23	-52	9.8	-4	3	6	11
O=C(COc1ccc2c(c1)CCC2)N1CCN(c2cccc(C(F)(F)F)c2)CC1	1.8	i	-3.5	1	-1	-1.1	-5	7	-12	112*
CN=CC1=C(O)CC(C)(C)CC1=O	0.5	/	/	/	/	/	2	-4	-4	1
O=C(CSc1nc2ccccc2s1)NC1CCCc2ccccc21 (stereo not drawn)	-3.8	/	/	/	/	/	/	-5	7	-8
Cc1c(OCC(=O)N[C@@H](CSCc2ccccc2)C(=O)O)ccc2c3c(c(=O)oc12)CCC3	0.7	i	-0.9	/	/	/	/	5	/	-11
Cc1noc(C)c1C(=O)N1CCC(CO)(Cc2ccccc2)CC1	-1.5	i	-1.0	18	16	1.6	-6	-20	-6	0
COC(=O)c1sccc1NC(=S)Nc1ccc(C)cc1	?	i	-2.1	4	6	-1.1	-1	3	-4	2
O=C(O)c1ccc(/C=C2\COc3ccccc3C2=O)cc1	-5.3	i	-2.8	3	-4	3.2	52	-3	-6	2
CC(C)Cc1nc2oc3c(N4CCN(CCO)CC4)ncnc3c2c2c1CCCC2	-2.5	/	/	/	/	/	/	25	2	-2
CN(C)c1ccc2c3c(ccc(N(C)C)c13)COC2	0.7	i	-3.9	35	21	3.8	41	0	-1	34
CC(C)Cn1c(NCCO)nc2ccccc21	?	/	/	/	/	/	24	-14	/	8
COC(=O)c1ccccc1NC(=O)CSc1nnnn1CC(=O)O	2.4	i	-3.0	4	3	-3.3	/	-9	-8	-7
CSc1nc(C)c(Cc2ccccc2)c(=O)[nH]1	6.4	i	-7.5	5	10	1.3	-21	10	-5	-10
O=C(CCc1ccccc1)Nc1ccc(S(=O)(=O)NC2=NCCCCC2)cc1	/	i	1.3	2	-4	-2.4	20	/	-1	/
COc1ccc(C2CC(c3ccccc3)=NN2C(=O)CSc2nnnn2-c2cccc(C)c2)cc1 (stereo not drawn)	-0.5	i	-12	3	-3	9.6	-24	?	-10	-11
COc1cccc(C(C(=O)NC2CCCCC2)N(CCN2CCOCC2)C(=O)C2COc3ccccc3O2)c1 (stereo not drawn)	-0.9	i	-1.3	/	/	/	6	10	7	12

These rows are one share of the data; the hit share may differ from the screen's.
